# Sfp PPTase inh: blocks B. subtilis Sfp PPTase activity. Biochemical Sfp PPTase activity, qHTS. Potency, µM, for the others: max response, negative = inhibition, most hits filed as inhibitors. actives 3.5% (n = 310,000). AID 1490; active means well fitted inhibition curve with a large enough effect; inconclusive means small, poorly fitted or top-dose-only effect, or another doubt; inactive means no such curve, though single readings can be large or run the other way;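 further: the enzyme is Sfp with the accession as filed and its product quenches rhodamine fluorescence; potency means the concentration at half of the fitted maximal effect; 0% = enzyme reaction without inhibitor and -100% = no enzyme wells; top concentration of the series not given in the record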
#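 After 15 min at room temperature with compound, 15 nM Sfp received 5 uM rhodamine-CoA plus 12.5 uM BHQ-2-ybbR (50 mM Hepes pH 7.6, 10 mM MgCl2). Rate came from the fluorescence difference over 30 min, ex 525/em 598 nm.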
# gsp ag: gsp mutant agonism; gsp mutant cells, cAMP HTRF, 30 min; control for the full effect not named in the record; Potency, µM (doses to about 76.9 µM), without a hit: at the highest dose activation (cAMP increase), most hits filed as activators; actives 0.13% (n = 340,000); active = well fitted activation curve with a large enough effect; inconclusive = small, poorly fitted or top-dose-only effect, or another doubt; inactive = no such curve, though single readings can be large or run the other way; cell line not stated here;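 further: phosphodiesterase inhibitor Ro 20-1724 added with compounds to block cAMP breakdown; potency means the concentration at half of the fitted maximal effect; nearly all actives have a fitted effect of over 60% in size; about a fifth of the inactives were tested at one dose only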
#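 Cells in DMEM/10% FBS with G418 were pretreated with compounds in DMSO plus […] (300 uM stock) for 30 min at 37C. cAMP was measured by HTRF (cAMP-d2 plus anti-cAMP antibody-K) after 30 min at room temperature.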
# D2 potentiator: positive allosteric modulators of human D2 dopamine receptor; P14416; DiscoveRx D2 beta-arrestin cells, luminescence, 90 min; 100% = 57 uM dopamine signal; potentiation, % (test concentration not listed); actives 0.23% (n = 360,000); AID 624464; active = potentiation of 50% or more; inconclusive = 30% to 50%; inactive = 30% or less;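 further: compound concentration not given in the record; tested on top of an EC20 dose of dopamine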
#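 PathHunter beta-arrestin assay in DiscoveRx D2 cells. Compounds were added with an EC20 of dopamine (50 nM final) for 90 min at 37 deg C. Luminescence was read 1 h after detection reagent, with 57 uM dopamine as the EC100 control.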
# ClpP mod: qHTS Assay for Activators of ClpP | Potency, µM (doses to about 57.5 µM), inactives show top-dose activity change, negative = active | purified B. subtilis ClpP, FRET peptide cleavage, 20 min | ATP-dependent Clp protease proteolytic subunit (Bacillus subtilis (strain 168)), P80244 | actives 1.9% (n = 340,000); active = well fitted falling curve with a large enough effect; inconclusive = small, poorly fitted or top-dose-only effect; inactive = no such curve, though single readings can be large or run the other way; further: potency means the concentration at half of the fitted maximal effect; the source files actives as falling curves though it sought activators and does not explain the sign; nearly all actives have a fitted effect of over 65% in size; many hits overshoot -100%
# Target sequence (P80244 whole entry, looked up): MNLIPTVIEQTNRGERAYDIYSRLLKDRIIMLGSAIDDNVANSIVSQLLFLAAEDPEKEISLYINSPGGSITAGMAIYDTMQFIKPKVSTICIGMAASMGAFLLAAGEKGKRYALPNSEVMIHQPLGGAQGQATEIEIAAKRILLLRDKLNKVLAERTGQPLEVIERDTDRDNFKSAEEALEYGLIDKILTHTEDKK
#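 FRET quenching reversal measured ClpP activation: 10 microg/mL B. subtilis ClpP at pH 8 with the FRET-FV decapeptide, read at 430 nm after 320 nm excitation. The 20-min minus 0-min signal was scaled between DMSO/no-enzyme wells and ADEP (5.8 microM final).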
# gsp antagonist: gsp mutant antagonism; actives 0.4% (n = 340,000); Potency, µM (series often up to 76.9 µM), for the others: at the top dose activity change, negative = inhibition, usual class: inhibitors; gsp-mutant cells, cAMP HTRF, 30 min; control for the full effect not named in the record; AID 624288; active = falling curve of any shape with a large fitted effect; inconclusive = falling curve, mostly with a smaller effect; inactive = flat or rising curve; cell line not stated here;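 further: intracellular cAMP measured with PDE inhibitor Ro 20-1724 present during compound exposure; potency means the concentration at half of the fitted maximal effect; on the % scale 0 is the no-effect control and ±100 the full control effect; nearly all actives have a fitted effect of over 65% in size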
#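 HTRF cAMP read-out (cAMP-d2 plus anti-cAMP antibody-K in lysis buffer, 30 min RT). Before lysis, cells are exposed to compounds with […] for 30 min at 37C in DPBS containing Ca/Mg, BSA and Tween 20.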
# Menin-MLL FL inh: inhibitors of human menin-MLL interaction, wild-type MLL peptide; 290,000 tested, under 10 active; Fluorescence polarization, fluorescein-MLL peptide displacement from menin; FP activity change, % at 61.4 µM; AID 1766; inconclusive = falling polarisation curve, or a change in total fluorescence; inactive = total fluorescence flat and polarisation flat or rising; no compound was filed as active; the % refers to the polarisation; negative = inhibition;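 further: % of control where 0% means no effect; inhibitors lower the polarisation; unlabelled MLL peptide was the positive control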
# TRPV1 PAM: potentiators of human vanilloid receptor 1 (TRPV1) | Q8NER1 | TRPV1-expressing cells, Fluo-8 calcium influx, capsaicin EC20 potentiation; host cell line not named in the record; control for the full effect not named in the record | potentiation, % at 8.33 µM | actives 0.02% (n = 320,000); active means potentiation above 80%; inconclusive means 30% to 80%; inactive means below 30%; further: 0% is about no effect
# Target sequence (Q8NER1 whole entry, looked up): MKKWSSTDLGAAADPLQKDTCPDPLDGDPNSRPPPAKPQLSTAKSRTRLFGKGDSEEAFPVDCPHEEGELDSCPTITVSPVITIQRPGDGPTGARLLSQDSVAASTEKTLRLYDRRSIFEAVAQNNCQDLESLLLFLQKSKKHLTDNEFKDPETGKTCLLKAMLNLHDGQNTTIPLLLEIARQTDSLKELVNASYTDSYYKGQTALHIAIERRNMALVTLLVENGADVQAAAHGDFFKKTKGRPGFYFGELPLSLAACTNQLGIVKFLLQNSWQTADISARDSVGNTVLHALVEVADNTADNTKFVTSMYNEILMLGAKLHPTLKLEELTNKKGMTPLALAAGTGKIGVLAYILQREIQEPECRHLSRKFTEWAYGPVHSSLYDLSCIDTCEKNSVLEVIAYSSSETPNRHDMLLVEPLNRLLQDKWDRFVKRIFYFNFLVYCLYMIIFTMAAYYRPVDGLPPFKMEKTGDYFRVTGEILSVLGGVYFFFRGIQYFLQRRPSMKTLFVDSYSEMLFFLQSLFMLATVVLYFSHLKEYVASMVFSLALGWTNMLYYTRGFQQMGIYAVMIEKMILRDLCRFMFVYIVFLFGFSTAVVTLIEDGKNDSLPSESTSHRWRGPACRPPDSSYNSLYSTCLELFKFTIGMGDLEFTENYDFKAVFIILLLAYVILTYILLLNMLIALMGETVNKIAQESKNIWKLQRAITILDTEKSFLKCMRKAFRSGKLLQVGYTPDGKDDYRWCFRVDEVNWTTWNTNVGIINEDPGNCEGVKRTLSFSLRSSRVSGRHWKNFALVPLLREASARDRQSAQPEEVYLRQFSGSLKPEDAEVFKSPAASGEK
#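 Cells expressing TRPV1 were dye-loaded with Fluo-8 and read kinetically: 10 s baseline, 3 min after compound (agonist portion), then 2 min after EC20 capsaicin (allosteric enhancer portion). Calcium-bound dye fluorescence at 480/520 nm.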
# An asterisk follows results filed as active; ? = inconclusive; · = not tested or not shown; & = joins results of further samples; [ ] = dose if it differs, or a comment. Hits appear at their usual frequency. Share with any hit: about 5.1%.
# Fields – Menin-MLL FL inh	ClpP mod	TRPV1 PAM	gsp antagonist	D2 potentiator	gsp ag	Sfp PPTase inh
O=C1NC2(CCOc3ccccc32)C(=O)N1CC(=O)N(Cc1ccccc1)C1CCS(=O)(=O)C1 (stereo not given)
→ 5.1	-2.1%	30	6%	5	-10%	6%
COc1ccc(C(=O)CCC(C)(C)[N+](=O)[O-])cc1
→ 4.0	1.2%	-4	3%	-8	-6%[15.4 µM]	18%
CC(C)Oc1ccc(Nc2ncnc3ccccc23)cc1
→ -2.5	·	-3	-16%	-6	-7%[15.4 µM]	-10%
COc1ccccc1NC(=O)c1sc2nc(C)cc(C)c2c1N
→ ·	-0.2%	·	8%	-5	7%[15.4 µM]	·
CCOC(=O)CSc1nc(C)cc(=O)[nH]1
→ 5.4	-2.4%	7	13%	-6	3%	16%
Cc1ccc(N2CC(C(=O)OCC(=O)c3ccc[nH]3)CC2=O)cc1 (stereo not given)
→ ·	-0.7%	-2	-3%	-12	-4%	·
COc1ccc(N2CCN(CCNC(=O)Nc3cc(Cl)ccc3Cl)CC2)cc1
→ -5.6	·	1	13%	-18	?	8%
COc1ccc(OCCN2CCN(C(=O)c3ccc(OC)c(OC)c3)CC2)cc1
→ 0.0	·	19	-3%	-4	0%	14%
O=C(O)CCN(CC(=O)c1ccc(Cl)cc1)S(=O)(=O)c1ccc([N+](=O)[O-])cc1
→ ·	1.3%	?	3%	?	·	·
COC(=O)c1c(C)nc(C)c(C(=O)OC)c1-c1ccc(OC)cc1
→ 0.6	·	-16	10%	1	11%[15.4 µM]	-6%
CCCCNc1ccc2oc(-c3ccc(OC)cc3)c(-c3ccc(OC)c(F)c3)c2c1
→ ·	4.0%	·	9%	-6	21%	·
Cc1ccc(CCN2CC(C(=O)NCCc3ccccc3)CC2=O)cc1 (stereo not given)
→ 0.3	1.5%	-13	-9%	-8	7%	21%
Cc1cc(SCC(=O)Nc2ccccc2)n2ncc(-c3ccccc3)c2n1
→ -2.6	1.1%	-7	-7%	-4	-21%	-9%
Fc1ccc(COc2ccccc2C(=S)N2CCCC2)cc1
→ -0.5	-0.7%	0	-38%	-8	8%[15.4 µM]	?
Cn1c(SCC(=O)NC2CCCC2)nnc1-c1ccncc1
→ -0.3	3.3%	2	-1%	-6	7%	14%
CCN(CC)Cc1nc2nc(Cl)c(Cl)nc2[nH]1
→ ·	-3.1%	·	·	-4	-35%[inhibitor]	·
CCOC(=O)CN(C(=O)CSc1nnc2c(n1)[nH]c1ccccc12)c1ccccc1
→ 2.6	3.0%	11	0%	-37	22%	5%
Cc1cc(C(=O)OCC(=O)N2CCc3ccccc32)ccc1[N+](=O)[O-]
→ ·	1.5%	6	15%	-12	-38%[inhibitor]	·
Cc1ccc(CN2CCN(Cc3cccn3-c3ccccn3)CC2CCO)cc1 (stereo not given)
→ -1.4	-1.2%	-12	2%	-13	-2%	4%
CC(C)CN(C(=O)COC(=O)/C=C/c1ccccc1)C1CCS(=O)(=O)C1 (stereo not given)
→ ·	-0.9%	-15	16%	-1	-55%[inhibitor]	·
CC1=C(N2CCN(c3ncccn3)CC2)CCC1=O
→ ·	1.1%	·	1%	-1	-33%[inhibitor]	·
Cc1ccccc1-n1ncc2c(SCC(=O)N3c4ccccc4CC3C)ncnc21 (stereo not given)
→ -1.3	-1.5%	·	-3%	-13	-38%[inhibitor]	5%
O=c1c2ccccc2sc2ccc(C#CC3(O)CCCCC3)cc12
→ ·	-27%	·	2%	-10	·	·
COc1ccc(C2CC(c3ccc(Cl)cc3)=NN2c2ccc(S(N)(=O)=O)cc2)cc1 (stereo not given)
→ ·	3.7%	·	0%	1	·	·
O=C(CN1CCC(C(=O)c2ccc(Cl)cc2)CC1)NC1CCCC1
→ ·	·	2	-1%	-12	3%[15.4 µM]	8%
FC(F)(F)c1cc(-c2ccco2)nc(N2CCN(Cc3ccccc3)CC2)n1
→ 3.1	4.8%	?	-6%	-15	?	-1%
COC(=O)C1CCN(C(=O)COC(=O)CNS(=O)(=O)c2ccc(SC)c([N+](=O)[O-])c2)CC1
→ ·	-5.0%	-1	-2%	13	28%	·
Cc1nn(CC(=O)N2CCN(c3ccccc3)CC2)c(=O)c2ccccc12
→ 1.5	0.3%	8	-20%	-4	6%	3%
O=C(O)CSC1=NC(=Nc2ccc(Cl)cc2)C2(CCCCC2)N1c1cccc(C(=O)O)c1
→ 6.8	1.8%	6	7%	-15	-13%	-13%
CC(C)c1nnc(NC(=O)CCC(=O)N2CCN(c3ccccc3F)CC2)s1
→ ·	-1.1%	3	-12%	-10	21%	23%
O=C(NCc1ccco1)C1CCCN(S(=O)(=O)c2ccccc2)C1 (stereo not given)
→ 3.2	0.3%	-3	13%	-4	-9%	19%
O=C(CSCc1ccccc1)N1CCN(c2cccc(C(F)(F)F)c2)CC1
→ 6.4	-0.2%	-12	-30%	-7	-53%[inhibitor]	12%
COc1ccc(NC(=O)/C(C#N)=C\c2cc(C)n(-c3ccc4c(c3)OCO4)c2C)cc1
→ 12	·	16	12%	-11	13%[15.4 µM]	12%
COc1cc(C(=O)N/N=C\c2ccccc2)c([N+](=O)[O-])c(OC)c1OC
→ 2.5	-0.9%	7	5%	-37	-32%[inhibitor]	10%
CCN(CC)C(=O)c1c(NC(=O)c2ccccc2)sc(C)c1C
→ 4.8	-3.8%	-8	-3%	?	0%	-1%
CCC(=O)Nc1nc2nc(C)cc(=O)n2[nH]1
→ -3.8	-4.8%	-1	8%	-5	-1%	-23%
COc1ccc(NC(=O)C2CCN(c3cc(-c4ccccc4)nc4ncnn34)CC2)cc1OC
→ 3.5	-6.0%	-8	?	-11	-48%[inhibitor]	4%
Cc1ccc2nc(SCc3cn4c(C)cc(C)nc4n3)[nH]c2c1
→ -2.1	·	?	·	·	·	7%
CC(C)(C)c1ccc(Oc2ccc(NC(=O)c3cccs3)cn2)cc1
→ 0.6	0.3%	2	-20%	1	-2%[15.4 µM]	24%
Cc1ccc(S(=O)(=O)N2CCC(=O)N(C(CO)C(C)C)CC2)cc1 (stereo not given)
→ 0.8	1.9%	-2	10%	-11	-2%	8%
O=c1c(-c2ccc3c(c2)OCCO3)coc2cc(O)cc(O)c12
→ -1.5	-0.2%	-12	?	-9	18%	20µM*
CC1Oc2ccccc2N(Cc2ccc(F)cc2)C1=O (stereo not given)
→ 3.5	-0.4%	22	0%	-10	-26%	3%
COc1ccc(NC(=O)COC(=O)[C@@H]2CCCN2S(=O)(=O)c2ccccc2F)c(OC)c1
→ -1.2	·	-5	-2%	-2	-18%	11%
O=C(CSc1ccc(-c2ccco2)nn1)NCc1ccc2c(c1)OCO2
→ 7.1	-2.3%	-4	8%	-7	26%[15.4 µM]	50µM*
COc1ccc(C(=O)NCc2nnc(SCC(=O)c3ccccc3)n2C)cc1
→ 0.0	1.0%	28	0%	-5	0%[15.4 µM]	7%
Cc1ccc(-c2noc(CCCC(=O)N3CCOCC3)n2)cc1
→ 1.2	0.8%	-12	-8%	10	?	8%
Cc1ccc(N2CCN(C(=O)c3ccccc3)CC2)c(C)c1
→ -0.8	1.0%	8	-23%	-3	2%	12%
O=c1c2c(n3cnnc3n1-c1ccccc1)-c1ccccc1CC21CCCCC1
→ 6.4	-1.4%	0	?	7	24%	-8%
CCOc1ccc(C(=S)N2CCOCC2)cc1OCC
→ 0.4	0.0%	?	4%	-3	-15%	-20%
CCOc1ccc(-c2nnc(SCC(=O)Nc3cc(C)on3)o2)cc1
→ -0.6	·	-5	23%	-7	6%[15.4 µM]	7%

# The list goes on.
# Fields – Menin-MLL FL inh	ClpP mod	TRPV1 PAM	gsp antagonist	D2 potentiator	gsp ag	Sfp PPTase inh
CC(C)OC(=O)Nc1ccc2c(c1)N(C(=O)CCN1CCOCC1)c1ccccc1CC2
→ 1.7	-1.3%	-5	13%	-3	6%[15.4 µM]	4%
COc1ccccc1NC(=O)c1cc2c(CO)cnc(C)c2oc1=Nc1ccccc1
→ -5.0	-0.2%	0	14%	-4	-16%[15.4 µM]	?
CCOC(=O)C1CCN(C(=O)COc2ccc(Br)cc2)CC1
→ 2.1	1.1%	-12	-5%	1	-39%[inhibitor]	9%
Cc1noc(C)c1NC(=O)N(C)C[C@H]1Oc2ccc(NC(=O)Nc3ccc(C(F)(F)F)cc3)cc2C(=O)N([C@H](C)CO)C[C@@H]1C
→ ·	1.9%	·	9%	4	·	·
CCCCN(CC)CCNC(=O)c1cc2c(-c3ccc(Cl)cc3)nn(C)c2s1
→ 0.7	4.3%	3&3	10%	57*	?	-9%
N#C/C(=C/c1ccccc1[N+](=O)[O-])c1nc(C2CC2)cs1
→ 3.8	-1.7%	-6	-13%	21	-24%	1%
CC(Oc1cc(-c2ccccc2)cc2ccccc12)C(=O)N1CCOCC1 (stereo not given)
→ -2.7	?	1	?	-5	5%	-13%
COCCCn1c(C(=O)N2CC(C)OC(C)C2)cc2c(=O)n3ccccc3nc21 (stereo not given)
→ -5.7	4.0%	-1	21%	-7	?	1%
c1cncc(CSc2nnc3ccc(-c4ccco4)nn23)c1
→ -0.8	0.5%	?	13%	0	?	10%
Cc1ccc(C(=O)O)cc1NC(=S)NC(=O)Cc1ccccc1
→ -4.3	-0.9%	-10	-9%	-8	10%	5%
Cc1ccc(OC(=O)c2ccc3snnc3c2)cc1
→ -0.2	0.6%	-15	1%	-13	-18%	9%
CC1Cc2ccccc2N1C(=O)CSc1nnc(-c2ccc(S(=O)(=O)N3CCCC3)cc2)o1 (stereo not given)
→ 2.0	?	5	-3%	3	10%	-1%
CC(C)(C)c1ccccc1OCC(=O)Nc1ccccc1C(=O)NCc1cccnc1
→ 5.5	·	-11	-11%	-4	15%	8%
CCN1CCC(Nc2ccnc3cc(Cl)ccc23)CC1
→ -6.6	·	1	4%	3	5%	7%
COc1ccc(OCC(=O)Nc2ccc(C(=O)Nc3ccccc3C(=O)O)cc2)cc1
→ 1.4	2.3%	-8	40µM*	27	16%	24%
CCn1c2ccccc2c2cc(NC(=O)CN(C)CC(=O)Nc3ccc(N4CCOCC4)cc3)ccc21
→ 1.8	?	7	-7%	-10	-10%	15%
CCOC(=O)c1cnn(-c2nc(OCC)cc(OCC)n2)c1C
→ 0.8	-1.8%	-15	-2%	-1	-2%[15.4 µM]	-1%
